# Screening results: PubChem BioAssay, National Center for Advancing Translational Sciences (NCATS)
# Cruzain inh noDet: cruzain (T. cruzi) inhibition without detergent; 2.3% of 200,000 active; purified cruzain, Z-FR-AMC fluorescence, no detergent; Potency, µM, without a hit: max response, negative = inhibition, most hits filed as inhibitors; AID 1476; P25779; active means well fitted curve in the direction sought with a large enough effect; inconclusive means small, poorly fitted or top-dose-only effect, or another doubt; inactive means no such curve, though single readings can be large; an effect the other way counts as inactive or inconclusive;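 further: plate controls were enzyme without inhibitor for no effect and buffer without enzyme for full effect; nearly all actives have a fitted effect of over 40% in size; top concentration of the series not given in the record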
# Target sequence (P25779 123-467 limits assumed): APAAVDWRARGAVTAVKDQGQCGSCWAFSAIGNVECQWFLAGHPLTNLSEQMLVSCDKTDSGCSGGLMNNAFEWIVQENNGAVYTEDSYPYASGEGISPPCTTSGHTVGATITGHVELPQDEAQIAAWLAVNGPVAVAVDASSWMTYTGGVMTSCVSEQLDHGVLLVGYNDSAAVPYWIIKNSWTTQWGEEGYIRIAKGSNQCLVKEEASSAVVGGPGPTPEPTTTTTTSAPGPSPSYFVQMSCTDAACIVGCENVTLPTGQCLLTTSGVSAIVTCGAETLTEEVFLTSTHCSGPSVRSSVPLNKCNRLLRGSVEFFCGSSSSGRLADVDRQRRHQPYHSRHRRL
#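 Purified cruzain at 1.5 nM, pre-incubated 15 min with compound at room temperature in 100 mM sodium acetate pH 5.5, 5 mM DTT, 0.00005% Triton X-100. Reaction started with 2 uM Z-FR-AMC; AMC fluorescence increase over 60 s gives rate.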
# Marburg entry inh: inhibitors of Marburg virus binding or cell entry; AID 540276; 1.8% of 300,000 active; Potency, µM (doses to about 37.8 µM), for inactives: at the top dose activity change, negative = inhibition, usual class: inhibitors; Marburg virus pseudotyped entry inhibition, cell reporter; control for the full effect not named in the record; about a third of the inactives were read at about 46 µM; active = well fitted inhibition curve with a large enough effect; inconclusive = small, poorly fitted or top-dose-only effect, or effect the other way; inactive = flat fitted curve, though single readings scatter; tested in HEK293 cells; about a fifth of its hits are not listed in these tables; further: on the % scale 0 is the no-effect control and ±100 the full control effect; luciferase read-out
# Lassa entry inh: Lassa virus entry inhibition; Lassa virus pseudotype entry inhibition, cell reporter; control for the full effect not named in the record; Potency, µM (series often up to 37.9 µM), inactives show at the top dose activity change, negative = inhibition, hits mostly inhibitors; 1.2% of 300,000 active; active means well fitted inhibition curve with a large enough effect; inconclusive means small, poorly fitted or top-dose-only effect, or effect the other way; inactive means flat fitted curve, though single readings scatter; tested in HEK293 cells; further: on the % scale 0 is the no-effect control and ±100 the full control effect; nearly all actives have a fitted effect of over 50% in size; luciferase read-out
# NS1 inh: inhibitors of influenza NS1 protein function; S. cerevisiae slowed by influenza A NS1, growth recovery by OD600; Potency, µM (series often up to 46.1 µM), inactives show top-dose activity, positive = more growth; 0.4% of 270,000 active; AID 2326; further: actives are rising curves; nearly all actives have a fitted effect of over 50% in size
#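 S. cerevisiae expressing influenza A NS1, grown in glucose, washed, then diluted 1:100 into pH 6.0 -URA galactose medium with 23 nl compound. Growth recovery read as OD600; NS1-free strain serves as control.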
# SARS PLP yeast: blocks SARS-CoV papain-like protease in a yeast assay; Potency, µM (series often up to 32.9 µM), inactives show at the highest dose activity, positive = growth rescue; S. cerevisiae expressing SARS-CoV PLpro, growth rescue; control for the full effect not named in the record; AID 485353; 0.19% of 330,000 active; further: 0% is about no effect; nearly all actives have a fitted effect of over 55% in size; growth read by luminescence after 48 h
# Cruzain inh Det: cruzain (T. cruzi) inhibition with detergent | P25779 | purified cruzain, Z-FR-AMC fluorescence, 0.01% Triton | Potency, µM, without a hit: max response, negative = inhibition, hits mostly inhibitors | 0.43% of 200,000 active | AID 1478; active means well fitted curve in the direction sought with a large enough effect; inconclusive means small, poorly fitted or top-dose-only effect, or another doubt; inactive means no such curve, though single readings can be large; an effect the other way counts as inactive or inconclusive;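 further: plate controls were neutral wells for no effect and buffer without enzyme for full effect; nearly all actives have a fitted effect of over 40% in size; top concentration of the series not given in the record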
#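 Read-out: AMC fluorescence (360 nm excitation, 450 nm emission), four reads over 2 min, first-to-third difference used. Conditions: cruzain 1.5 nM, Z-FR-AMC 2 uM, pH 5.5 acetate, 5 mM DTT, 0.01% Triton X-100.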
# RE007 growth inh: less growth of the S. pombe RE007 Vpr strain | Potency, µM (series often up to 92.2 µM), for inactives: at the highest dose activity change, negative = less growth | S. pombe RE007 Vpr strain, BacTiter-Glo ATP luminescence, 24 h; control for the full effect not named in the record | AID 651644 | 0.21% of 360,000 active; active = well fitted falling curve with a large enough effect; inconclusive = small, poorly fitted or top-dose-only effect; inactive = no such curve, though single readings can be large or run the other way;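 further: on the % scale 0 is the no-effect control and ±100 the full control effect; nearly all actives have a fitted effect of over 50% in size; the assay follows cell death caused by Vpr and the record does not say whether a fall means rescue or toxicity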
#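 Fission yeast strain RE007, carrying one chromosomally integrated HIV-1 vpr copy, was seeded at OD 0.01 in PMG+AL medium with 23 nL pinned compound. After 24 h at 30 °C and 99% humidity, viability was read by BacTiter-Glo luminescence.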
# StopGo reporter: FMDV 2A StopGo reporter, luciferase signal | human cells with a luciferase reporter of 2A StopGo recoding; control for the full effect not named in the record | Potency, µM (highest dose often 57.9 µM), inactives show top-dose signal change, negative = less light | 1.2% of 410,000 active | AID 1159524; active = well fitted falling curve with a large enough effect; inconclusive = small, poorly fitted or top-dose-only effect; inactive = no such curve, though single readings can be large or run the other way; tested in HEK293T cells; further: on the % scale 0 is the no-effect control and ±100 the full control effect; nearly all actives have a fitted effect of over 45% in size; luciferase light after 4 h
# Starred values were filed as active, the others as inactive; ? = inconclusive; nt = no result given; & = joins results of further samples; [ ] = remark or other dose. Unless noted, the call rests on the fitted dose curve; in most records, active means well fitted rising curve with a large enough effect; inconclusive means small, poorly fitted or top-dose-only effect; inactive means no such curve, though single readings can be large or run the other way. Potency means the concentration at half of the fitted maximal effect.
Compound	Cruzain inh noDet	Marburg entry inh	Lassa entry inh	NS1 inh	SARS PLP yeast	Cruzain inh Det	RE007 growth inh	StopGo reporter
CCOC(=O)C1=C(N)Oc2c(oc(CO)cc2=O)C1c1ccc(F)c(F)c1 (configuration not stated)	nt	-18.7%	-3.5%	4.6%	7.6%	nt	2.0%	-6.2%
CCc1cc2c(SCC(=O)Nc3ncc(Cl)c(C)c3Cl)ncnc2s1	-3.3%	-0.4%	nt	21.9%	6.0%	-7.4%	5.6%	-10.6%
CN(Cc1nc(-c2ccc(Cl)cc2)no1)C(=O)CCN1C(=O)[C@H]2CC=CC[C@H]2C1=O	nt	nt	nt	11.8%	7.2%	nt	4.6%	-24.4%
CC(C)(C)OC(=O)N1CSC[C@H]1C(=O)NC[C@H](CC(=O)O)c1ccc(Cl)cc1	nt	nt	nt	7.0%	3.1%	nt	20.0%	-12.1%
Cc1ccc(N2CC(C(=O)NCc3n[nH]c(=O)c4ccccc34)CC2=O)cc1C (configuration not stated)	nt	?	11.6%	nt	1.1%	nt	7.4%	-7.0%
O=c1[nH]c(=O)n(C2OC(CO)C(O)C2O)cc1N1CCOCC1 (configuration not stated)	nt	5.9%	-10.5%	nt	nt	nt	-19.8%	-11.1%
O=C(c1ccc(C23CC4CC(CC(C4)C2)C3)o1)N1CCOCC1	-1.2%	-5.9%	-25.6%	-47.9%	-2.3%	-2.6%	6.9%	?
CS(=O)(=O)N(CC(=O)N1CCN(c2cccc(Cl)c2)CC1)c1ccccc1	?	-1.5%	-10.8%	-57.5%	-0.4%	3.9%	-8.9%	nt
CCCCSc1nnc2[nH]c(=O)cc(C)n12	-0.6%	nt	-17.4%[46.1 µM]	nt	nt	-2.9%	nt	5.9%
CC(NC(=O)COC(=O)c1cc(Cl)nc(Cl)c1)c1ccccc1 (configuration not stated)	nt	5.4%[46.1 µM]	6.5%	5.1%	-0.3%	nt	9.6%	0.2%
Cc1cc(C)cc(N(C(=O)Cc2cccs2)C(C(=O)NC2CCCC2)c2ccc(C)o2)c1 (configuration not stated)	7.3%	-1.0%	8.1%	3.0%	3.0%	-4.1%	11.8%	nt
CCOc1ccc(CNCc2cccnc2)cc1	-5.5%	17.2%	0.0%	1.9%	11.5%	-3.0%	-7.0%	6.5%
COc1ccc([C@H]2[C@@H]3C=CCC[C@@]3(C)C(=O)N2Cc2ccccc2)cc1Cl	nt	nt	nt	-7.5%	-18.1%	nt	-14.8%	?
CCc1ccccc1NC(=O)CN(C)C(=O)CN1C(=O)NC2(CCCCCC2)C1=O	7.1%	?	2.3%	2.8%	0.8%	0.2%	-3.4%	-7.3%
Cc1ccc(C(=O)NCCc2nnc3ccc(SCC(=O)NCc4ccc(F)cc4)nn23)cc1	nt	nt	nt	4.4%	2.6%	nt	-3.0%	-9.6%
CCC(=O)N1CCN(c2ccc(Cl)cc2NC(=O)Cc2ccc(Cl)cc2)CC1	29.1%	?	-13.5%[14.3 µM]	1.4%	-13.8%	-6.7%	-25.0%	-27.9%
CCN(CC)C(=O)CSc1nnc(-c2c[nH]c3ccccc23)o1	nt	nt	nt	18.5%	0.1%	nt	2.7%	65.3%[activator]
CCOC(=O)Cc1csc(SCC(=O)Nc2cccc(Cl)c2)n1	-15.6%	?	-15.8%	-65.0%	-2.9%	-2.5%	2.2%	-6.5%
CC(C)(C)OC(=O)N1CCC(c2c(C(=O)NCCN3CCc4ccccc4C3)cnn2-c2ccc(F)cc2)CC1	3.3%	nt	-10.8%[46.1 µM]	nt	nt	-1.6%	nt	-13.2%
Cc1ccc(-c2ccc(C(=O)O)c(C)n2)cc1	1.3%	25.5%	10.3%	-1.7%	13.9%	-2.2%	39.2%	-7.9%
Cn1nnnc1SCCNC(=O)C1CCC(=O)N(Cc2ccc(Cl)cc2)C1 (configuration not stated)	nt	1.3%	17.8%	-0.6%	17.1%	nt	-13.4%	-11.2%
CCCC(c1nnnn1CCOC)N(Cc1cc2cc(C)c(C)cc2[nH]c1=O)CC1CCCO1 (configuration not stated)	?	-25.1%&0.0%	-11.4%	-8.2%	-3.9%	-2.6%	4.3%	6.4%
COc1ccc(CC(=O)Nc2ccccc2C(=O)NCCc2ccccc2)cc1	nt	nt	nt	-15.6%	6.8%	nt	7.6%	-28.1%
O=C(O)c1cc(C2CC2)nn1-c1ccccc1	8.2%	-4.4%	0.5%	0.4%	?	-1.1%	0.9%	-7.3%
CCC1(C(=O)c2ccccc2)C(c2cccc([N+](=O)[O-])c2)C1(C(=O)OC)C(=O)OC (configuration not stated)	-4.9%	?	-3.6%	7.3%	-1.7%	-7.7%	10.3%	?
O=c1c2cc3c(cc2[nH]c(=S)n1C1CCN(Cc2ccccc2)CC1)OCO3	nt	?	21.3%[46.1 µM]	nt	1.1%	nt	-0.5%	-1.7%
Cc1ccc(N=Nc2c(C)[nH]n(-c3ccccc3)c2=O)c(C)c1	nt	-10.4%[46.1 µM]	-9.4%	-30.3%	-5.3%	nt	-2.3%	-0.8%
Cc1cccc(OC(=O)CSc2nnc(-c3ccc4c(c3)OCO4)o2)c1C	-0.4%	-1.0%[46.1 µM]	-14.7%[46.1 µM]	nt	nt	-4.0%	nt	-28.1%
O=C1C=C(O)c2cccc3cccc1c23	nt	-33.4%[46.1 µM]	0.5%[46.1 µM]	28.5%	-1.7%	nt	11.1%	-10.1%
CC(C)[C@@H](N)C(=O)N/N=C/c1ccc2nccnc2c1	nt	?	25.8%	4.5%	-3.9%	nt	-15.3%	7.2%
C=CCNC(=O)N1CCC(n2nccc2NC(=O)CCCc2ccccc2)CC1	nt	nt	nt	19.2%	2.6%	nt	2.7%	4.5%
CCCCOc1ccc(Nc2cc(Cl)ccc2C(=O)O)cn1	nt	6.0%[46.1 µM]	-12.8%[46.1 µM]	-87.4%	-6.4%	nt	28.2µM*	-14.5%
Cc1ccc(N(CC2CO2)S(=O)(=O)c2ccc([N+](=O)[O-])cc2)cc1 (configuration not stated)	nt	-1.8%[46.1 µM]	-18.0%	-11.3%	-0.4%	nt	-1.5%	-16.5%
CCCCCc1nc2c(c(=O)c3ccccc3n2C)c(=O)n1Cc1ccc(OC)cc1	nt	nt	nt	0.5%	0.0%	nt	4.5%	-1.9%
COc1cc(-c2nn3c(-c4ccccn4)nnc3s2)cc(OC)c1OC	1.8%	-1.9%	nt	3.1%	-2.4%	15.1%	nt	nt
O=C(NCCOc1nc(N2CCCCC2)nc(N2CCOCC2)n1)Nc1ccccc1	13.2%	-4.3%	-14.9%	-79.8%	?	1.7%	-6.9%	12.0%
O=C(NCC1CCCO1)c1onc(CSc2ccccc2F)c1C(=O)O (configuration not stated)	-7.6%	nt	nt	15.1%	1.8%	1.4%	6.3%	-7.1%
C=CCN(Cc1nc(-c2cc(OC)c3c(c2)OCO3)oc1C)C1CCS(=O)(=O)C1 (configuration not stated)	nt	nt	nt	0.4%	-1.2%	nt	6.4%	-20.5%
Cc1nnsc1C(=O)N1CCN(c2cc(C(F)(F)F)ccn2)CC1	nt	nt	nt	5.1%	0.0%	nt	3.9%	-9.3%
COc1ccc(OC)c(C(=O)N2CCC(n3nccc3NC(=O)CC(C)C)CC2)c1	nt	nt	nt	7.0%	2.6%	nt	7.1%	-10.7%
CN(C)c1ccc(CNC(=O)C2CCN(c3nc4ccccc4[nH]3)CC2)cc1	-8.9%	nt	1.4%[46.1 µM]	nt	nt	-0.5%	nt	5.5%
CNC(=S)N1CCc2cc(OC)c(OC)cc2C1COc1ccc(F)cc1 (configuration not stated)	nt	?	?	nt	-0.4%	nt	-8.0%	-23.8%
CC(=O)c1cnn(-c2ccccc2)c1C	nt	?	-5.5%	nt	-0.5%	nt	1.1%	11.5%
N#CCCn1nc2c(c1N)CCC2	nt	19.7%	13.3%[46.1 µM]	nt	nt	nt	8.8%	0.0%
CCOc1cc(/C=C/C(=O)O)ccc1OCCOc1ccc(F)cc1	nt	?	?	-3.8%	0.5%	nt	7.7%	-8.3%
COCCNC(=O)C/C(C)=N/NC(=O)C(=O)NC1CCCCC1	nt	?	-0.3%	2.5%	0.1%	nt	-17.7%	4.4%
Cc1cc(C)nc(SCC(=O)Nc2ncc3c(n2)CC(C)(C)CC3=O)n1	-7.3%	13.8%	-7.8%	-19.9%	-0.1%	-0.7%	-3.2%	-12.8%
Cn1c(=O)oc2cc(S(=O)(=O)NCc3ccncc3)ccc21	-11.2%	-7.1%	9.8%	3.9%	3.3%	-2.5%	-12.9%	1.1%
Cc1cccc(N2C(=O)/C(=C/c3ccccn3)SC2=S)c1	nt	nt	nt	4.3%	1.1%	nt	-13.3%	-2.4%
CCN(Cc1ccncc1)C(=O)c1ccco1	nt	nt	nt	4.3%	2.7%	nt	-5.5%	6.5%
COc1cccc(N2CCN(S(=O)(=O)c3ccc(-c4coc(C)n4)cc3)CC2)c1	nt	nt	nt	9.4%	-3.5%	nt	-0.8%	?
Cc1ccc(OC(=O)c2cc(-c3ccc4c(c3)OCCO4)on2)c(C)c1	-6.8%	15.1%[46.1 µM]	7.2%[46.1 µM]	nt	nt	-8.5%	nt	8.1%
CCOc1ccc(C(=O)NCC2OCCc3ccccc32)cc1 (configuration not stated)	1.6%	26.3%	-0.1%	-3.9%	-6.6%	-2.2%	-10.4%	51.2%[activator]
COc1cc(C(=O)Nc2ccc([N+](=O)[O-])cn2)cc(OC)c1OC	-3.4%	-7.0%	2.2%	16.6%	9.2%	-5.5%	-2.9%	-10.9%
NS(=O)(=O)c1cccc(NC(=O)CSc2nc3ccccc3c(=O)n2CC2CCCO2)c1 (configuration not stated)	nt	-6.5%[46.1 µM]	?	nt	0.6%	nt	12.1%	-17.8%
Cc1cc(F)ccc1S(=O)(=O)Nc1ccc(O)c(Sc2ncn[nH]2)c1	nt	-0.1%[46.1 µM]	13.5%[46.1 µM]	1.6%	4.3%	nt	2.8%	4.0%

# Hits appear at their usual frequency. About 4.5% of those tested had a hit in this group.
